TRPV1 potentiator: human TRPV1 potentiation; Q8NER1; TRPV1-expressing cells, Fluo-8 calcium influx, capsaicin EC20 potentiation; host cell line not named in the record; control for the full effect not named in the record; potentiation, % at 8.33 µM; actives 0.02% (n = 320,000); active means potentiation above 80%; inconclusive means 30% to 80%; inactive means below 30%; further: 0% is about no effect
Target sequence (Q8NER1 whole entry, looked up): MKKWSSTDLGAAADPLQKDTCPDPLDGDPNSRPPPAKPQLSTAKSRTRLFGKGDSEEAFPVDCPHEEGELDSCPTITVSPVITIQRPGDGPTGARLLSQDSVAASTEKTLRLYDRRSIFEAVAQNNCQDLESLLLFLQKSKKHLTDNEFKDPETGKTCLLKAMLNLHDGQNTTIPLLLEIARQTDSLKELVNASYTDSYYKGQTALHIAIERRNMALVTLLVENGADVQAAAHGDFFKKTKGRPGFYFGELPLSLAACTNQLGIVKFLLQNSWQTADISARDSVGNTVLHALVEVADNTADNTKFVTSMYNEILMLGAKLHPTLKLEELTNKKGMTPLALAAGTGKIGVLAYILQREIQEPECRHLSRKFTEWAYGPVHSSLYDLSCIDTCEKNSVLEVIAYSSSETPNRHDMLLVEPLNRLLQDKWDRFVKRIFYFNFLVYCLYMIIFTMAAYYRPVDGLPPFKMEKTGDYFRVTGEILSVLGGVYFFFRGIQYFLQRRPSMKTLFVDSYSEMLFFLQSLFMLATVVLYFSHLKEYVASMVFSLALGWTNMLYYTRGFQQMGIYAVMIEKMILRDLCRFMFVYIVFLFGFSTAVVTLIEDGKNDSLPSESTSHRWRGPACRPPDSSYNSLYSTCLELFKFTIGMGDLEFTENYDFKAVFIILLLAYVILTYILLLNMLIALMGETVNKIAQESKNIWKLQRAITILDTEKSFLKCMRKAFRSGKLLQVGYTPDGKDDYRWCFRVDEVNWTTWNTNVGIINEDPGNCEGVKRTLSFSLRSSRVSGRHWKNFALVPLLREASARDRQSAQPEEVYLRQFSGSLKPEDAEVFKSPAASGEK
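Fluo-8 calcium influx in TRPV1-expressing cells, kinetic read (ex 480/em 520 nm). Compound added and read 3 min for agonist activity, followed by capsaicin at EC20 final and 2 min further read for enhancement.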
Sfp PPTase inh: blocks B. subtilis Sfp PPTase activity; actives 3.5% (n = 310,000); Q9F4F7; Biochemical Sfp PPTase activity, qHTS; Potency, µM, for inactives: max response, negative = inhibition, hits mostly inhibitors; active means well fitted inhibition curve with a large enough effect; inconclusive means small, poorly fitted or top-dose-only effect, or another doubt; inactive means no such curve, though single readings can be large or run the other way;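 further: the enzyme is Sfp with the accession as filed and its product quenches rhodamine fluorescence; potency means the concentration at half of the fitted maximal effect; 0% = enzyme reaction without inhibitor and -100% = no enzyme wells; top concentration of the series not given in the record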
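Reaction rates are the 30-min fluorescence difference (ex 525, em 598 nm) in wells containing 15 nM Sfp, 5 uM rhodamine-CoA and 12.5 uM BHQ-2-YbbR at pH 7.6 with 10 mM MgCl2.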
gsp antagonist: gsp mutant antagonism; actives 0.4% (n = 340,000); AID 624288; Potency, µM (series often up to 76.9 µM), for the others: at the highest dose activity change, negative = inhibition, actives largely listed as inhibitors; gsp-mutant cells, cAMP HTRF, 30 min; control for the full effect not named in the record; active = falling curve of any shape with a large fitted effect; inconclusive = falling curve, mostly with a smaller effect; inactive = flat or rising curve; cell line not stated here;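 further: intracellular cAMP measured with PDE inhibitor Ro 20-1724 present during compound exposure; potency means the concentration at half of the fitted maximal effect; on the % scale 0 is the no-effect control and ±100 the full control effect; nearly all actives have a fitted effect of over 65% in size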
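HTRF cAMP measurement after 30 min RT detection following 30 min, 37C compound treatment alongside […] (added as 300 uM solution) in G418-selected cells seeded at 2000/well and grown 16–24 h.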
ClpP mod: qHTS Assay for Activators of ClpP | ATP-dependent Clp protease proteolytic subunit (Bacillus subtilis (strain 168)), P80244 | purified B. subtilis ClpP, FRET peptide cleavage, 20 min | Potency, µM (highest dose often 57.5 µM), without a hit: top-dose activity change, negative = active | actives 1.9% (n = 340,000); active = well fitted falling curve with a large enough effect; inconclusive = small, poorly fitted or top-dose-only effect; inactive = no such curve, though single readings can be large or run the other way; further: potency means the concentration at half of the fitted maximal effect; the source files actives as falling curves though it sought activators and does not explain the sign; nearly all actives have a fitted effect of over 65% in size; many hits overshoot -100%
Target sequence (P80244 whole entry, looked up): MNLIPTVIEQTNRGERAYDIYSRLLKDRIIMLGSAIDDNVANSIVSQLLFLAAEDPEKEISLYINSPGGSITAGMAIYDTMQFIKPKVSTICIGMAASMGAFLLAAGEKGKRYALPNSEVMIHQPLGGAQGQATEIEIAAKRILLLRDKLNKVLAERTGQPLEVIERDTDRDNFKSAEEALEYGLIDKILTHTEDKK
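FRET quenching reversal measured ClpP activation: 10 microg/mL B. subtilis ClpP at pH 8 with the FRET-FV decapeptide, read at 430 nm after 320 nm excitation. The 20-min minus 0-min signal was scaled between DMSO/no-enzyme wells and ADEP (5.8 microM final).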
gsp ag: gsp mutant agonism | gsp mutant cells, cAMP HTRF, 30 min; control for the full effect not named in the record | Potency, µM (top dose mostly 76.9 µM), without a hit: at the top dose activation (cAMP increase), hits mostly activators | actives 0.13% (n = 340,000) | AID 624287; active = well fitted activation curve with a large enough effect; inconclusive = small, poorly fitted or top-dose-only effect, or another doubt; inactive = no such curve, though single readings can be large or run the other way; cell line not stated here;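 further: phosphodiesterase inhibitor Ro 20-1724 added with compounds to block cAMP breakdown; potency means the concentration at half of the fitted maximal effect; nearly all actives have a fitted effect of over 60% in size; about a fifth of the inactives were tested at one dose only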
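Cells in DMEM/10% FBS with G418 were pretreated with compounds in DMSO plus […] (300 uM stock) for 30 min at 37C. cAMP was measured by HTRF (cAMP-d2 plus anti-cAMP antibody-K) after 30 min at room temperature.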
Menin-MLL FL inh: menin-MLL binding inhibition, fluorescein peptide; 290,000 tested, under 10 active; FP activity change, % at 61.4 µM; Fluorescence polarization, fluorescein-MLL peptide displacement from menin; inconclusive = falling polarisation curve, or a change in total fluorescence; inactive = total fluorescence flat and polarisation flat or rising; no compound was filed as active; the % refers to the polarisation; negative = inhibition;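 further: % of control where 0% means no effect; inhibitors lower the polarisation; unlabelled MLL peptide was the positive control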
CtBP-E1A blk: inhibitors of CtBP/E1A interaction | AlphaScreen GST-E1A/His-CtBP binding, 1536-well; active compounds read low; control for the full effect not named in the record | activity change, % (concentration not given with the values) | actives 0.49% (n = 340,000) | AID 651724; in the data active means activity change below about -65%; inconclusive means about -30% to -65%; inactive means above about -30%; further: on the % scale 0 is the no-effect control and ±100 the full control effect
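Homogeneous bead-based format: GST-tagged E1A captured on glutathione donor beads, His-tagged CtBP on nickel acceptor beads; compounds precede bead addition by 2 h at 37 °C.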
* = called active by the depositor; u = inconclusive; x = not tested or not shown; [ ] = another dose, or the depositor's remark.

SMILES	TRPV1 potentiator	Sfp PPTase inh	gsp antagonist	ClpP mod	gsp ag	Menin-MLL FL inh	CtBP-E1A blk
COc1ccc(CC2(CO)CCN(Cc3cnn(C)c3C)CC2)cc1	2.0	13.4%	22.5%	-1.2%	u	-0.2	-11.5
Cc1c(C(=O)N2CCC(N3CCSCC3)CC2)oc2c(F)cccc12	0.7	8.3%	10.2%	1.8%	u	x	0.7
O=C(NCCC1=CCCCC1)C1CCN(C(=O)Nc2ccccc2)CC1	-7.9	15.2%	8.7%	-0.2%	6.5%	3.0	1.9
CCOC(=O)C(=O)Nc1cc(C)on1	-11.7	8.0%	12.5%	x	0.5%[15.4 µM]	8.4	1.4
CC1CCCC(C)N1C(=O)COC(=O)CNS(=O)(=O)c1ccc2ccccc2c1 (stereo not given)	x	x	x	-1.1%	-35.6%[inhibitor]	x	0.5
COc1cccc(N2CCN(C3CCCC(C)C3)CC2)c1 (stereo not given)	21.3	9.0%	12.7%	-1.8%	-24.8%	3.0	2.5
CSc1cccc(CNC(=O)C2CCC(=O)N(CC3CCCCC3)C2)c1 (stereo not given)	8.9	11.8%	3.7%	-2.8%	-0.9%	x	-3.6
Cc1ccc(CC2CC(=O)N(c3nc(C)cc(C)n3)C2=O)cc1 (stereo not given)	-3.3	0.3%	3.0%	-1.8%	2.6%[15.4 µM]	0.3	4.5
CCCCCCCc1nc2sc3c(c2c(=O)n1N)CC(C)(C)OC3	25.5	6.6%	8.7%	x	0.1%[15.4 µM]	-1.2	18.8
CCn1c(CNC(=O)c2cccnc2)cc2ccccc21	-5.3	7.7%	-1.2%	1.2%	9.5%	1.6	x
COC(=O)[C@H]1C[C@@H]1[C@H](NC(=O)[C@H]1C[C@@H]1[C@H](NC(=O)OCc1ccccc1)c1ccccc1)c1ccccc1	11.7	12.3%	-9.9%	1.4%	x	4.2	-2.1
CCCC(CCC(=O)Nc1ccc(C(=O)OCC)cc1)C(=O)O (stereo not given)	-7.9	30.1%[activator]	-1.7%	-1.0%	-1.6%	1.7	0.6
CCCOc1cccc(C2C(C(=O)c3ccc(C)o3)=C(O)C(=O)N2c2nc(C)c(C(C)=O)s2)c1 (stereo not given)	-13.0	-19.3%	-8.8%	0.7%	u	13.6	4.0
O=C(COC(=O)c1ccccc1)c1ccc(Br)cc1	-4.9	19.4%	-1.4%	-1.5%	-4.1%	4.8	2.9
O=C(O)c1ccccc1NC(=O)C1CCN(S(=O)(=O)c2cccc3nsnc23)CC1	0.6	11.0%	-7.8%	x	-7.1%	-0.7	-19.8
Cc1cccc(NC(=S)NNC(=O)COc2ccc(Cl)cc2Cl)c1	-1.2	u	-19.2%	2.4%	9.5%	-1.7	-12.6
COc1ccc(NC(=O)C2=C(C)Nc3nc(CCCO)nn3C2c2ccc(OC)c(OC)c2)cc1 (stereo not given)	-1.4	17.2%	7.4%	x	-15.8%[15.4 µM]	-1.3	0.6
CCCCn1c(NC(=O)CC)c(C#N)c2nc3ccccc3nc21	-23.5	6.0%	-2.0%	15.8µM*	-15.3%	u	-8.0
CCCCC(=NCCc1c(C)[nH]c2ccccc12)C1=C(O)CC(c2ccccc2)CC1=O (stereo not given)	-13.5	18.2%	-14.3%	x	9.0%	1.4	-9.5
O=C(Nc1ncccn1)c1ccc([N+](=O)[O-])o1	-12.0	-5.9%	x	x	22.4%[15.4 µM]	u	2.6
CCn1ncc(C2=NOC(C(=O)Nc3cc(OC)c(Cl)cc3OC)C2)c1C (stereo not given)	1.4	7.3%	-3.8%	1.1%	-0.8%	1.0	6.3
CCOC(=O)C1CCCN(C2CC(=O)N(c3ccc(C)cc3)C2=O)C1 (stereo not given)	10.6	18.1%	-7.7%	0.5%	-5.5%	0.4	8.7
COc1cc(NC(=O)c2cccs2)c(OC)cc1NC(=O)CCn1nnc2ccccc21	-7.1	8.9%	u	0.6%	u	2.5	u
Cc1cc(C)c(C)c(S(=O)(=O)N2CCN(C(=O)C3CCC3)CC2)c1C	-23.4	x	0.9%	x	28.8%[15.4 µM]	x	-0.9
COc1cc(-c2nc(-c3ccccn3)no2)cc(OC)c1OC	-8.3	6.3%	12.7%	-3.4%	-43.3%[inhibitor]	1.8	-19.6
SMILES	TRPV1 potentiator	Sfp PPTase inh	gsp antagonist	ClpP mod	gsp ag	Menin-MLL FL inh	CtBP-E1A blk
Cc1ccc(-n2nc3c(c2NC(=O)/C=C\c2ccc4c(c2)OCO4)CSC3)cc1	10.6	0.1%	-6.2%	-22.1%	-19.2%	7.5	-0.1
COc1ccc(NC(=O)c2sc(NC(=O)COc3ccccc3)nc2C)cc1	x	4.5%	-2.8%	-1.5%	2.7%	2.1	-3.1
COc1ccc2cc(C=O)n(C)c2c1	-1.9	x	3.7%	0.9%	-27.1%	x	7.7
Cc1ccc(C(=O)O/N=C(\N)c2ccccn2)cc1C	-13.3	18.7%	-13.0%	-3.1%	-16.7%[15.4 µM]	-1.2	-11.5
COc1ccc(C(=O)C2CCCN(C(=O)/C=C/c3cnc[nH]3)C2)c(C)c1 (stereo not given)	29.6	1.3%	4.4%	0.8%	u	x	-2.3
C=CCn1c(SCC(=O)Nc2ccccc2OC)nc(O)c(CC)c1=O	21.5	9.1%	-17.9%	-1.2%	-2.4%	1.4	2.0
COc1ccccc1C(=O)Nc1ccc(S(=O)(=O)Nc2cc(C)on2)cc1	10.9	4.0%	-5.8%	25.1µM*	u	2.7	-1.0
S=C(NCC1CCCO1)Nc1cccc2ccccc12 (stereo not given)	-14.9	13.7%	6.0%	x	-3.8%[15.4 µM]	-4.5	0.3
CN(CC(=O)Nc1ccccc1Br)C(=O)c1ccccc1Sc1ccccc1C#N	x	x	-35.2%	1.9%	20.4%	x	-0.4
COc1ccc(NC(=O)CSc2nncs2)cc1S(N)(=O)=O	6.0	13.1%	8.9%	-2.2%	u	3.8	-0.4
O=C(NC(=S)Nc1cccc(O)c1)c1ccco1	-5.3	u	-4.7%	-0.5%	20.4%	-1.5	x
CC(=O)N1CCN(CC(=O)Nc2cccc(S(=O)(=O)N3CCCCC3)c2)CC1	x	x	0.3%	x	9.9%	x	-1.7
COc1ccc(S(=O)(=O)NCCc2c[nH]c3ccc(Cl)cc23)cc1	12.5	9.5%	-6.2%	-0.2%	-3.8%[15.4 µM]	1.0	1.1
CCN(Cc1ccccc1)C(=O)c1ccc(N(C)S(=O)(=O)c2ccc(C)cc2)cc1	-7.4	x	-16.1%	-2.7%	2.0%	x	-2.4
COc1ccc(S(=O)(=O)N2CCN(Cc3cccc(F)c3)CC2)cc1	x	x	0.6%	x	-10.6%	x	-3.1
CC(C)NC(=O)CCCn1cc([N+](=O)[O-])cn1	2.2	-5.5%	-10.0%	1.9%	19.3%[15.4 µM]	1.2	5.5
Cc1occc1-c1nnc(SCC(=O)NC2(C#N)CCCC2)n1C	2.7	x	-2.1%	x	12.5%[15.4 µM]	x	2.5
COc1ccc(S(=O)(=O)Oc2ccc3ccccc3c2)cc1	2.6	6.9%	u	0.9%	-11.9%	-0.7	-2.3
COC(=O)COc1nc(C)c2c(c1C#N)CC(C)(C)OC2	1.6	20.5%	3.9%[15.4 µM]	-9.1%	5.1%	0.7	0.6
COc1ccc(C2=NN(C(=O)CSc3nccn3C)C(c3ccco3)C2)cc1 (stereo not given)	x	x	-7.4%	-0.8%	-15.0%	x	-14.3
COC1CCN(Cc2c(C(=O)N3C[C@@H](C)O[C@@H](C)C3)nc3ccc(Cl)cn23)CC1	-12.6	8.6%	5.8%	-5.8%	-9.3%	-4.3	-17.7
CC1=C(C(=O)OCc2ccccc2)C(c2ccc(C)cc2)NC(=O)N1 (stereo not given)	x	x	x	0.9%	u	x	17.1
COc1ccc(C(=O)NC(C)c2cnn(-c3ccccn3)c2C)o1 (stereo not given)	1.0	9.0%	-15.5%	0.4%	-28.4%	4.0	-2.8
CCCCCSc1nc2c(c(=O)[nH]c(=O)n2C)n1CCc1ccccc1	-7.2	10.9%	-0.1%	-1.4%	4.9%	3.3	8.2
Nn1c(SCC(=O)Nc2nccs2)nnc1-c1cccnc1	19.1	x	11.9%	-2.8%	35.8%	x	-14.6
SMILES	TRPV1 potentiator	Sfp PPTase inh	gsp antagonist	ClpP mod	gsp ag	Menin-MLL FL inh	CtBP-E1A blk
O=c1cc(CSc2nc3ccccc3[nH]2)c2ccccc2[nH]1	-5.7	-26.4%	1.5%	-1.5%	-23.7%	2.3	-1.9
CCC(C)(C)n1nnnc1C(c1cc2cccc(C)c2[nH]c1=O)N1CCCC1 (stereo not given)	u	-22.6%	-4.0%	-20.3%	5.2%	-1.1	-5.0
CCn1c(SCC(=O)N=Nc2c(O)[nH]c3ccccc23)nnc1-c1ccc(C(C)(C)C)cc1	-4.0	14.0%	x	x	x	2.4	x
O=C(CCCOc1ccc(Cl)cc1Cl)NCc1ccccn1	6.1	-13.7%	-0.7%	x	0.0%	0.6	-0.5
CCOc1ccccc1NC(=O)C(c1ccccc1)N1CCN(CC(=O)N2CCCC2)CC1 (stereo not given)	x	x	-12.2%	-2.3%	u	x	x
O=C(Cn1c(O)c(/C=C2\C=Nc3ccc(Br)cc32)sc1=O)N1CCCC1	-3.5	-0.6%	-15.7%	-2.2%	6.0%	2.1	-2.6
COc1ccccc1CCNC(=O)C(=O)Nc1cc2c3c(c1)C(C)C(=O)N3CCC2 (stereo not given)	-26.2	x	-8.5%	-0.9%	-45.1%	x	-4.8
Nc1cc(C(=O)OCC(=O)N2CCCC2)ccc1Cl	-6.0	20.6%	-13.4%[15.4 µM]	-25.5%	1.2%	0.4	13.2
CC(OC(=O)c1ccc(Cl)nc1)C(=O)N1CCc2ccccc21 (stereo not given)	-4.8	x	8.4%	x	-9.7%[15.4 µM]	x	-5.4
C=COc1ccc(N2C(=O)c3ccccc3OC2C)cc1 (stereo not given)	2.1	5.6%	-8.7%	-2.4%	-2.1%[15.4 µM]	6.4	-1.1

Entries shown so far that have bromine (3):
SMILES	TRPV1 potentiator	Sfp PPTase inh	gsp antagonist	ClpP mod	gsp ag	Menin-MLL FL inh	CtBP-E1A blk
O=C(COC(=O)c1ccccc1)c1ccc(Br)cc1	-4.9	19.4%	-1.4%	-1.5%	-4.1%	4.8	2.9
CN(CC(=O)Nc1ccccc1Br)C(=O)c1ccccc1Sc1ccccc1C#N	x	x	-35.2%	1.9%	20.4%	x	-0.4
O=C(Cn1c(O)c(/C=C2\C=Nc3ccc(Br)cc32)sc1=O)N1CCCC1	-3.5	-0.6%	-15.7%	-2.2%	6.0%	2.1	-2.6
